Source: PubChem BioAssay (National Center for Advancing Translational Sciences (NCATS))
FEN1 inh: qHTS Assay for the Inhibitors of Human Flap endonuclease 1 (FEN1). Recombinant FEN1 flap cleavage, fluorescence, 15 min. Potency, µM (series often up to 114 µM), inactives show top-dose activity change, negative = inhibition, most hits filed as inhibitors. 390,000 compounds, 0.35% hits. AID 588795, 2011; note: nearly all actives have a fitted effect of over 65% in size
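Steps: FEN1 (10 nM) dispensed; compound added by pin tool; 15 min at room temperature; substrate added to 50 nM final; reads at 0 min and 15 min; data normalized and fitted (four-parameter Hill).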
GCN5L2 inh: qHTS Assay for Inhibitors of GCN5L2; Histone acetyltransferase KAT2A (Homo sapiens), Q92830; GCN5L2 HAT assay, ThioGlo1 CoA-SH fluorescence; Potency, µM (series often up to 58.9 µM), for the others: at the highest dose activity change, negative = inhibition, most hits filed as inhibitors; 390,000 compounds, 0.21% hits
Target sequence (Q92830 whole entry, looked up): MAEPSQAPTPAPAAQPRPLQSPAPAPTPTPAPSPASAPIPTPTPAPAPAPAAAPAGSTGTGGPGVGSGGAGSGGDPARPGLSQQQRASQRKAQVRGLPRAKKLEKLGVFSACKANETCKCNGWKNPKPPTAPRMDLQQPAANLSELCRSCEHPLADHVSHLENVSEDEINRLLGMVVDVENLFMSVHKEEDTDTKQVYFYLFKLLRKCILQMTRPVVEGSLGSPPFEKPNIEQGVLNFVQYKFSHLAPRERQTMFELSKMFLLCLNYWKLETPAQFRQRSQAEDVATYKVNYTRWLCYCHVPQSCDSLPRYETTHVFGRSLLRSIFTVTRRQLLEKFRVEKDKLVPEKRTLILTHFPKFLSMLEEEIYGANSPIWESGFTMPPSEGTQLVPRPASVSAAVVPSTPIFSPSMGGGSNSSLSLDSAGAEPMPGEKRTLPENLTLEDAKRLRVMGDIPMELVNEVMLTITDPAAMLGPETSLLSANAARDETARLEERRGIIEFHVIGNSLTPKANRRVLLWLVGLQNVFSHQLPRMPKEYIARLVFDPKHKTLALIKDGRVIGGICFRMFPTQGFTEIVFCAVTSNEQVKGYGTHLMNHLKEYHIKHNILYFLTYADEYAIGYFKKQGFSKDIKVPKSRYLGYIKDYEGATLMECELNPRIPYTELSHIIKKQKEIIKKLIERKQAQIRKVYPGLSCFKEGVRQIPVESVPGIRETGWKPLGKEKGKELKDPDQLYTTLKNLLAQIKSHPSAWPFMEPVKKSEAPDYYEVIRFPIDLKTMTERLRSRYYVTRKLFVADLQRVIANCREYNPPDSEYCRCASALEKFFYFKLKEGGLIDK
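Free CoA generated was detected with ThioGlo1 (50uM) fluorescence at Ex340nm/Em540nm, read immediately and after 20 min at room temperature. Enzyme, 20 nM in HEPES pH 7.5 buffer, saw compounds 15 min before adding 75uM H3(1-25) peptide and 70uM acetyl-CoA.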
* = called active by the depositor; ? = inconclusive; / = not tested or not shown; & = joins results of further samples; [ ] = another dose, or the depositor's remark. Calls come from the whole dose curve; as a rule, active = well fitted curve in the direction sought with a large enough effect; inconclusive = small, poorly fitted or top-dose-only effect, or another doubt; inactive = no such curve, though single readings can be large; an effect the other way counts as inactive or inconclusive. % is set by controls: 0 for no effect and ±100 for the full control effect; potency is the fitted concentration of half-maximal effect.

SMILES | FEN1 inh | GCN5L2 inh
O=C(CCCNS(=O)(=O)c1cccc2nsnc12)NCc1ccc(F)cc1 | 0.7% | -7.3%
CCCN(CCC)C(=O)CSc1nc2ccccc2c(=O)n1CC1COc2ccccc2O1 (configuration not stated) | -4.5% | -5.1%
Cc1[nH]c(=O)[nH]c(=O)c1S(=O)(=O)N1CCCC(C(=O)N2CCN(c3cccc(C(F)(F)F)c3)CC2)C1 (configuration not stated) | -0.8% | -1.8%
CC(c1nnc(SCC(=O)NC(=O)NCc2ccco2)n1-c1ccc(Cl)cc1)N(C)C (configuration not stated) | 1.5% | -3.2%
COc1ccc(Cn2c(C3CC3)nc3ccc(NC(=O)c4ccco4)cc3c2=O)cc1 | -12.8% | -8.7%
COc1ccc(CCN2C(=NC(=O)CC(C)C)SC3CS(=O)(=O)CC32)cc1 (configuration not stated) | -10.9% | 5.1%
CCS(=O)(=O)N1CCN(CC2CC3C=CC2C3)CC1 (configuration not stated) | 1.5% | -0.2%
COc1ccc(CN2C(=O)C(=O)N(CC(N)=O)C2=O)cc1 | 14.2% | -3.6%
O=C(Nc1sc2c(c1C(=O)NCc1ccco1)CCCC2)c1cc(=O)c2cc(Cl)ccc2o1 | -0.5% | -0.1%
O=C(COC(=O)C1CCN(c2ccc(C(F)(F)F)cn2)CC1)c1ccc(Cl)cc1 | -14.2% | -7.2%
CN(C)c1nc(Nc2ccc(Cl)cc2)nc(OCC#N)n1 | 1.4% | -1.3%
CNC(=S)NNC(=O)c1sccc1C | 9.4% | -17.8%
COc1ccc(N2C(=O)NC3CC2(C)Oc2ccccc23)cc1OC (configuration not stated) | 9.7% | -21.3%
CCOC(=O)c1c(C)[nH]c(C(=O)OCC(=O)Nc2cc(Cl)ccc2OC)c1C | 3.8% | 2.6%
COc1ccc([C@H]2CC(=O)C=C(c3ccc4ncccc4c3)C2)cc1 | 0.9% | 2.4%
Cn1c(SCC(=O)n2c3c(c4ccccc42)CCCC3)nnc1-c1ccccc1 | -20.6% | -3.6%
CC(C)CCN(C(=O)Nc1ccc(Cl)cc1)C1CCN(C(C)C)CC1 | -5.4% | -7.4%
NNC(=O)c1cccc(COc2cccc(Br)c2)c1 | -10.3% | 2.0%
CCCCn1c(=O)nc2n(-c3ccccc3C)c3ccccc3cc-2c1=O | -5.2% | -5.5%
Cc1cc(NC(=O)c2cccc([N+](=O)[O-])c2)no1 | 7.8% | -11.9%
CN(Cc1ccccc1)C(=O)Nc1ccc2c(c1)N(C)C(=O)c1ccccc1S2 | 1.6% | -11.8%
COc1cccc(-c2ccc3nnc(SCC(=O)N4CCOCC4)n3n2)c1 | 3.8% | -1.2%
CN(C)S(=O)(=O)c1ccc(N2CCCC2)c(C(=O)NCC2CCCCC2)c1 | -14.4% | 2.4%
CC1CC(C)(C)Nc2ccc(OC(=O)c3ccco3)cc21 (configuration not stated) | -2.8% | -4.0%
COc1ccc2cc(C(=O)NC3CCCCC3)c(=O)oc2c1 | 6.8% | -17.2%
CCCc1ncc(C(O)(c2ccccc2)c2ccc(C)cc2)n1C (configuration not stated) | -0.7% | 0.3%
CCCCOC(=O)CCCc1ccc([N+](=O)[O-])cc1[N+](=O)[O-] | -5.5% | -1.7%
CC(=C/c1ccccc1)/C=N/Nc1nc(N2CCOCC2)nc(N2CCOCC2)n1 | 5.5% | -6.4%
CC1(C)CC(=O)C(C(=S)Nc2ccccc2)=C(NC2CC(C)(C)NC(C)(C)C2)C1 | 1.2% | -16.8%
CCC(C)(C(=O)NC1CCCC1)N(Cc1cccs1)C(=O)c1ccccn1 (configuration not stated) | 15.3% | -4.0%

Whole records, quoted from the list. Screens in order: FEN1 inh | GCN5L2 inh
CN(C)S(=O)(=O)c1ccc(N2CCCC2)c(C(=O)NCC2CCCCC2)c1 in the list: -14.4% | 2.4%
COc1cccc(-c2ccc3nnc(SCC(=O)N4CCOCC4)n3n2)c1 in the list: 3.8% | -1.2%
Cn1c(SCC(=O)n2c3c(c4ccccc42)CCCC3)nnc1-c1ccccc1 in the list: -20.6% | -3.6%

(list continues)
SMILES | FEN1 inh | GCN5L2 inh
CN(C)c1ccc(C(=O)OCC(=O)Nc2cccc(S(=O)(=O)N3CCCC3)c2)cc1 | 7.5% | -7.8%
CCOC(=O)CCc1c(C)nc(-n2[nH]c(C)c(CCO)c2=O)[nH]c1=O | -2.0% | -3.2%
O=C(CN1CCN(C(=O)C2CCCO2)CC1)Nc1c(Cl)cccc1Cl (configuration not stated) | 2.6% | -4.0%
Cc1ccc(S(=O)(=O)c2cn(CC(=O)Nc3ccc4c(c3)OCO4)c3ccccc3c2=O)cc1C | 8.5% | ?
COc1cccc(N2CCN(c3ccc4nnc(CCC(=O)Nc5ccccn5)n4n3)CC2)c1 | -11.8% | -0.5%
O=C(COC(=O)/C=C/c1ccccc1Cl)NCCc1ccc(Cl)cc1Cl | 11.1% | -2.2%
Cc1cc(=O)n2c(n1)NC(Nc1cccc(C)c1C)=NC2c1ccccc1 (configuration not stated) | 19.5% | 3.8%
O=C(N/N=C/c1ccncc1)NC1CCCCC1 | 17.9% | -8.1%
COc1ccc2oc(C(=O)OCC(=O)NC(=O)NC(C)C)c(C)c2c1 | -19.1% | -2.5%
N#Cc1ccc2c(c1)N(CCCN1CCC(O)CC1)c1ccccc1S2 | / | ?
Cc1ccc(CNC(=O)CCS(=O)(=O)c2ccc3c(c2)NC(=O)C(C)S3)cc1 (configuration not stated) | 16.2% | -0.6%
O=C(COC(=O)/C=C/c1ccc(OC(F)F)cc1)Nc1ccc2[nH]c(=O)[nH]c2c1 | 6.9% | -0.7%
CCNC(=O)NC(=O)COC(=O)c1cccc(NS(=O)(=O)/C=C/c2ccccc2)c1 | 3.3% | 0.6%
CCOC(=O)C1=C(C)NC(C)=C(C(=O)OCC)C1C(=O)OCC(=O)c1ccc2c(c1)OCCO2 | 9.5% | -11.8%
CN(C)/C(=N\S(=O)(=O)c1ccccc1)c1ccc([N+](=O)[O-])cc1 | -0.7% | -1.8%

Look-ups from the entries so far.
`CN(C)c1ccc(C(=O)OCC(=O)Nc2cccc(S(=O)(=O)N3CCCC3)c2)cc1` in FEN1 inh = 7.5%
`CCOC(=O)CCc1c(C)nc(-n2[nH]c(C)c(CCO)c2=O)[nH]c1=O` in FEN1 inh = -2.0%

Other compounds follow.
SMILES | FEN1 inh | GCN5L2 inh
CCC(=O)N1CCc2cc(S(=O)(=O)NCCN3CCCCC3CC)ccc21 (configuration not stated) | -0.5% | /
COc1ccc(NC(=O)NCc2cccnc2)cc1 | -7.2% | -5.3%
N#Cc1cc(C(=O)c2ccccc2OCC(=O)Nc2ccccc2Cl)cn(C2CCCCC2)c1=O | -4.3% | 0.0%
CC(C)(C)OC(=O)N1CCN(C(=O)c2nc[nH]c2C(=O)N2CCN(C(=O)OC(C)(C)C)CC2)CC1 | 0.5% | -0.4%
O=C(c1coc2ccccc2c1=O)N1CCN(c2cccc(C(F)(F)F)c2)CC1 | 16.4% | 39.3%[activator]
Cc1cccc(N2CCN(C(=O)C3CCN(c4nnc(-n5cccc5)s4)CC3)CC2C)c1 (configuration not stated) | -17.6% | 1.6%
Cc1cc(NCc2ccccn2)n2nc(C)c(-c3ccc(Cl)cc3)c2n1 | -14.6% | -4.8%
CC(C)CSc1n[nH]c(N)n1 | 6.7% | -10.7%
Cc1ccc([N+](=O)[O-])cc1S(=O)(=O)Nc1ccc(OCC(=O)N2CCOCC2)cc1 | 4.5% | -14.7%
O=C1C2CC=C(Cl)CC2C(=O)N1CCC[n+]1cccc2ccccc21 (configuration not stated) | 21.2% | -9.2%
CC1CCC(N2CC(=O)N(C3CCCCC3)C(c3ccc(Cl)cc3)C2=O)CC1 (configuration not stated) | -4.9% | -9.7%
COc1cc2c(c(OC)c1OC)C(c1ccc(C)cc1)CC(=O)O2 (configuration not stated) | 5.7% | -8.5%
CCn1c(=O)c2cc(C(=O)Nc3cc(C)c(Cl)cc3OC)sc2c2ccccc21 | 16.7% | 0.8%
O=C(NCc1ccc(OC(F)(F)F)cc1)C12CN(Cc3ccccc3)CC1C(c1cccc([N+](=O)[O-])c1)=NO2 (configuration not stated) | -19.7% | 12.2%
CCN(C(=O)COC(=O)CCc1ccccc1)c1ccccc1 | -6.2% | -1.3%
CCC(Oc1ccccc1)C(=O)Nc1cc(-c2ccccc2F)nn1-c1ccccc1 (configuration not stated) | 12.2% | -11.1%
CCOC(=O)C(C)(C)NS(=O)(=O)c1ccc(Cl)c([N+](=O)[O-])c1 | 11.5% | ?
CN1C(=S)SC(/[N+]([O-])=C\c2ccco2)C1(C)C (configuration not stated) | -0.8% | -0.1%
CCOc1ccccc1NC(=O)CSc1nnc2[nH]c(=O)cc(-c3ccccc3)n12 | 12.3% | -26.2%
COc1ccc(CCNc2ncnc3c2cnn3-c2cc(Cl)ccc2C)cc1 | -1.1% | -3.4%
COc1ccc(-c2nc3c4c(ncn3n2)-c2ccccc2CC42CCCC2)cc1 | -0.7% | -6.1%
C[C@@]12C(=O)Nc3ccc(Cl)cc3C(=O)N1[C@H]1c3cc(Cl)ccc3OC[C@@H]1[C@@H]2c1ccccc1 | -4.3% | -6.7%
CCC(CC)C(=O)Nc1cccc(-c2nc3cccnc3s2)c1 | -0.5% | -0.8%
CSc1nc(N)nc(-c2cccs2)c1C#N | -12.4% | -10.7%
CS(=O)(=O)N(CCC#N)Cc1ccc(/C=C2\C(=O)Nc3ccccc32)o1 | -7.6% | -7.8%
COc1ccc(S(=O)(=O)N2CCC(C(=O)NCc3ccncc3)CC2)cc1OC | 7.2% | -5.6%
CC1CN(C(=O)CCC(=O)NCc2ccc(F)cc2)c2cc(Cl)ccc2O1 (configuration not stated) | -15.2% | -1.1%
Cc1ccc(CN2CCN(CC(=O)NCCCN3CCN(c4ccc(F)cc4)CC3)C2=O)cc1 | -9.8% | -3.4%
Nc1nnc(SCc2ccc(F)cc2)s1 | -16.4% | /
O=C(O)CC(C(=O)O)C(c1ccccc1)c1ccccc1 (configuration not stated) | -7.7% | /
O=C(NCC(=O)N(CC1CCCO1)C(C(=O)NC1CCCCC1)c1cccnc1)c1cccs1 (configuration not stated) | -13.9% | -7.7%
Cc1c(NC(=O)CSc2nncc3ccccc23)c(=O)n(-c2ccccc2)n1C | -0.7% | -1.3%
Cc1ccc(NC(=O)C2CCCN2S(=O)(=O)c2ccc3c(c2)n(C)c(=O)c(=O)n3C)cc1 (configuration not stated) | 3.9%&-6.0% | -3.4%&-0.5%
O=C(CCN1CCCCO1)N1CCCC(Nc2ccc(F)c(F)c2)C1 (configuration not stated) | 7.0% | -27.1%
Cc1cccc(C(=O)N[C@H](C(=O)NCCc2ccc(S(N)(=O)=O)cc2)C(C)C)c1 | 2.0% | -2.6%
CC(C)(O)c1nnn(-c2ccccc2)c1C(F)(F)F | -3.6% | -2.6%
CCOc1ccc2[nH]c(=S)[nH]c2c1 | 5.9% | 0.5%
CCCc1cc(C(=O)Nc2ccc(F)cc2F)no1 | 11.8% | -16.6%
CCOc1sc2nc(C)n(CC(=O)Nc3cccc(C)c3)c(=O)c2c1C | 18.8% | 11.1%
Cc1ccc(C)c(-n2nnc(-c3nc(-c4ccc(Cl)cc4)no3)c2N)c1 | -1.7% | -12.7%
Cc1cc(C)c(NC(=O)CSc2nnc(-c3ccccn3)n2N)c(Cl)c1 | -13.5% | -6.4%
COCCNC(=O)/C(C#N)=C/c1cc(C)n(-c2ccc(C)cc2)c1C | -10.8% | -12.8%
O=C(/C=C/c1ccco1)N(Cc1cccc(F)c1)C1CCS(=O)(=O)C1 (configuration not stated) | -8.2% | -19.8%
CCCCCN(C(=O)CCC(=O)OCC(=O)NCc1ccc(OC)cc1)c1c(N)n(CCCC)c(=O)[nH]c1=O | -9.5% | -9.3%
CCCN(CCC)CCCNC(=O)c1cc2c(=O)oc3ccc(C)cc3c2s1 | -9.2% | -0.4%
CC(C)CCN(C(=O)CNC(=O)c1cccs1)C(C(=O)NC1CCCC1)c1ccncc1 (configuration not stated) | -12.7% | -0.5%
Cn1c(=O)c2ncn(CC(=O)Nc3nc(-c4ccc(Cl)cc4)cs3)c2n(C)c1=O | 15.9% | -0.8%
CCN(Cc1cnn(C)c1)C(=O)C1CCC(=O)N(CCc2ccc(OC)cc2)C1 (configuration not stated) | 18.0% | -0.9%

Of the compounds above, these have a cyano group:
SMILES | FEN1 inh | GCN5L2 inh
CN(C)c1nc(Nc2ccc(Cl)cc2)nc(OCC#N)n1 | 1.4% | -1.3%
N#Cc1ccc2c(c1)N(CCCN1CCC(O)CC1)c1ccccc1S2 | / | ?
N#Cc1cc(C(=O)c2ccccc2OCC(=O)Nc2ccccc2Cl)cn(C2CCCCC2)c1=O | -4.3% | 0.0%
CSc1nc(N)nc(-c2cccs2)c1C#N | -12.4% | -10.7%
CS(=O)(=O)N(CCC#N)Cc1ccc(/C=C2\C(=O)Nc3ccccc32)o1 | -7.6% | -7.8%
COCCNC(=O)/C(C#N)=C/c1cc(C)n(-c2ccc(C)cc2)c1C | -10.8% | -12.8%

Not all compounds are listed, and most or all hits are left out here.
